VDR inhibitor: inhibitors of human vitamin D receptor; P11473; VDR-SRC2-3 peptide fluorescence polarization, 2 h; Potency, µM, for inactives: max response, negative = inhibition, hits mostly inhibitors; 400,000 tested, 0.93% active; AID 504847; active means well fitted inhibition curve with a large enough effect; inconclusive means small, poorly fitted or top-dose-only effect, or another doubt; inactive means no such curve, though single readings can be large or run the other way; further: series mostly up to about 120 µM
Target sequence (P11473 whole entry, looked up): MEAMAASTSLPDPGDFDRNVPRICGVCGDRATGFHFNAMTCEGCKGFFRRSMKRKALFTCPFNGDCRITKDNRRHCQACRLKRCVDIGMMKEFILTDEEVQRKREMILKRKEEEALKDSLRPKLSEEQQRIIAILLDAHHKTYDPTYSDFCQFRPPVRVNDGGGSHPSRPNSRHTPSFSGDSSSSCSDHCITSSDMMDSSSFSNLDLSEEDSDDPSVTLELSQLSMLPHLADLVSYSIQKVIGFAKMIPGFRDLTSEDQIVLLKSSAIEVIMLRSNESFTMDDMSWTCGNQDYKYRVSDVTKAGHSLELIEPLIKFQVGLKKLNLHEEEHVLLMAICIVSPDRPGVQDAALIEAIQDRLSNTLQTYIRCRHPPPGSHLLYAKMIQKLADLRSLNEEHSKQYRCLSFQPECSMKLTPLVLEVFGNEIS
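VDR–SRC2-3 interaction, FP format. Cmpds 23 nl via pintool, brief spin, 2 h ambient incubation.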
The depositor's hits bear a star; ? = inconclusive; & = joins results of further samples. On the % scale 0 is the no-effect control and ±100 the full control effect; potency means the concentration at half of the fitted maximal effect. Only part of the results is shown; the hit share may differ from the screen's.

VDR inhibitor	Structure
0.4%	Cn1c(=O)c(-c2ccccc2)nc2cncnc21
-3.4%&0.9%	CCCCCCNC(=O)c1ccc(Br)o1
-18.0%	CCN1C(=O)C2(Nc3ccccc3-c3nc4ccccc4n32)c2cc(OC)ccc21 (centres undefined)
?	O=C(O)Cc1c(-c2ccccc2Cl)c2cc(Br)ccc2[nH]c1=O
20.9%	Cc1nn(CCCC(=O)NCc2cccc(Cl)c2)c(=O)c2c1sc1ccccc12
6.5%	CCOC(=O)c1c(NS(=O)(=O)Cc2ccccc2)sc2c1CCCC2
-14.0%	Cc1cccc(CNCc2ccccc2)c1
3.0%	Cc1cccc(C)c1OCC(=O)N(Cc1ccccc1F)C1CCS(=O)(=O)C1 (centres undefined)
5.8%	CCN1CCN(CC(=O)Nc2ccc3c(c2)OCCO3)C(=O)C1=O
-24.4%	CCOC(=O)C1CCN(C(c2ccc(SC)cc2)c2c(O)cc(C)n(Cc3ccco3)c2=O)CC1 (centres undefined)
-2.6%	Cn1ncc2c(Nc3ccccc3Cl)nc(Nc3ccccc3Cl)nc21
-15.8%	CSc1cccc(NC(=O)CCCn2c(=O)c3cccn3c3cccnc32)c1
-7.2%	CC(C)[C@H](NS(=O)(=O)c1ccccc1)C(=O)OCC(=O)N1N=C(c2ccc(Cl)cc2)CC1c1ccco1 (some centres undefined)
-13.5%	Cc1ccc([C@@H]2CC=C(C(=O)O)[C@H](c3ccccc3F)N2S(=O)(=O)c2ccc(C)cc2)cc1
-25.8%	COc1cccc(NC(=O)CN(C)C(=O)c2ccc(NC(=O)CC3SC(N4CCCCC4)=NC3=O)cc2)c1 (centres undefined)
24.2%	O=C(Nc1ccccc1)Nc1cccc(Cl)c1
-9.2%	COC(=O)c1sc(NC(=O)c2cnccn2)c(C(=O)OC)c1C
21.5%	CCSc1nc2c(c(=O)n1Cc1ccccc1)SC(C)C2 (centres undefined)
15.7%	Cc1ccccc1CNC(=O)CCc1cn(Cc2ccccc2C)c2ccccc12
-1.3%	CCCC(=O)N1c2ccccc2NC2=C(C(=O)CCC2)C1c1ccc(F)cc1 (centres undefined)
-7.0%	O=C(OCc1ccc([N+](=O)[O-])cc1)c1cc(S(=O)(=O)N2CCCCC2)ccc1N1CCOCC1
7.1%	S=C(NCc1cccs1)Nc1ccc(Br)cc1Cl
-13.3%	CCN(CC)Cc1c(C(=O)N/N=C/c2cccnc2)nnn1-c1nonc1N
11.0%	Cc1cc2nc(N=C(N)N)nc(C)c2cc1C
-10.1%	CCn1cc([N+](=O)[O-])c(C(=O)Nc2ccn(C34CC5CC(CC(C5)C3)C4)n2)n1
-24.9%	CCN(CC)C(=O)Cn1cc(C(=O)C(=O)NCCCN2CCOCC2)c2ccccc21
18.2%	Cc1cc(C)cc(NC(=O)C2CCN(S(=O)(=O)c3cccc(-c4noc(C)n4)c3)CC2)c1
-5.3%	Cc1cc(N2CC(C)OC(C)C2)nc(C(C)C)n1 (centres undefined)
-4.2%	C=CC[C@@H](CC(=O)N(CCO)Cc1ccccc1)C(=O)NC[C@H](OC(=O)[C@@H](CC=C)CC(=O)OC(C)(C)C)c1ccccc1
-2.5%	O=C(c1ccccc1)c1nn(-c2cccc(Cl)c2)ccc1=O
-16.0%	ClC1=C(Cl)C(Cl)=C(Cl)C1=C/C=C/c1ccccc1
-15.7%	COc1ccc(-n2c(-c3ccc(C)cc3)n[nH]c2=S)cc1
0.7%	Cc1ccc(C)c(OCC(=O)NNC(=O)CCN2CCN(c3ccccc3)CC2)c1
-14.4%	CCC1(c2ccccc2)NC(=O)N(CC(=O)Nc2ccccc2C(=O)NC2CCCC2)C1=O (centres undefined)
-16.9%	O=C1CCN(CCc2ccccc2)CCN1[C@H](CSc1ccc(Br)cc1)c1ccccc1
17.0%	Fc1ccccc1NC(=S)NCc1ccccc1
1.7%	N#Cc1nc(-c2ccc(Cl)cc2)oc1NCc1cccc2c1OCO2
0.1%	O=C(NCCN1C(=O)S/C(=C\c2ccc(Cl)c(Cl)c2)C1=O)C1COc2ccccc2O1 (centres undefined)
-4.4%	CCOC(=O)c1c(NC(=O)CSc2nnc3ccccn23)sc2c1CCC2
6.2%	Cc1ccc2nc(SCc3ccccc3)c(C=O)c(=O)n2c1
13.9%	CCNCCNC(=O)c1c(O)c2c([nH]c1=O)CCCC2
-3.3%	CCN1N=C(C)C=C(c2ccccc2)n2c1nc1ccccc12
-17.0%	Cc1ccccc1NC(=O)c1ccccc1NC(=O)c1ccccc1Cl
-4.1%	CN(C)CCCn1c(=O)n(Cc2ccccc2)c(=O)c2c3c(sc21)CCCCC3
6.9%	O=C(Nc1ccc(F)cc1)C1CCCN(c2ncnc3c2nc2n3CCCCC2)C1 (centres undefined)
5.4%	COc1ccc(CNC(=O)CN(C(=O)Cn2nnc(-c3ccccc3F)n2)c2ccc(C)cc2)cc1
-1.0%	CCCCCn1c(CN2CCN(c3ccc(OC)cc3)CC2)nc2c1c(=O)[nH]c(=O)n2C
-16.9%	Cc1ccc(OCC(O)CN2C(=O)NC(C)(C)C2=O)cc1C (centres undefined)
25.7%	COc1cccc(CNC(=O)Cn2c(=O)oc3cc(S(=O)(=O)N4CCCCC4)ccc32)c1
-10.4%	Cc1cc(C(=O)N2CCN(Cc3ccc4c(c3)OCO4)CC2)on1

(next part)
VDR inhibitor	Structure
-18.6%	CCCCn1c(N)c(N(CCOC)C(=O)CC(NC(=O)c2ccccc2)c2ccccc2)c(=O)[nH]c1=O (centres undefined)
-16.0%	CNC(=O)NC(=O)CSc1ccc(S(=O)(=O)N(C)C2CCCCC2)cn1
-1.4%	COc1ccc(N2CCN(c3ncnc4c3cnn4C)CC2)cc1
?	C/C=C1\COC(C(=O)NCCOCCO)(C(F)(F)F)C=C1C=C1CCCCC1 (centres undefined)
?	CCCN1CNc2c(c(=O)[nH]c(=S)n2CCC(C)(C)C)C1
11.8%	Cc1ccc(-c2onc(C)c2C)cc1S(=O)(=O)NCc1ccc(N(C)C)cc1
16.3%	COC(=O)c1cc(OC)c(OC)cc1NCC(=O)Nc1ccc(C)cc1
-4.5%	O=C(NCCC1=CCCCC1)c1c(O)nc2sccn2c1=O
13.8%	CCc1n[nH]c(=O)c2cc3cc(OC)ccc3n12
-18.5%	CC(Oc1cccc(Cl)c1)C(=O)Nc1ccc(S(=O)(=O)Nc2ncccn2)cc1 (centres undefined)

Exported in markdown: part of the list above
| Structure | VDR inhibitor |
| --- | --- |
| COc1ccc(N2CCN(c3ncnc4c3cnn4C)CC2)cc1 | -1.4% |
| CCCCn1c(N)c(N(CCOC)C(=O)CC(NC(=O)c2ccccc2)c2ccccc2)c(=O)[nH]c1=O (centres undefined) | -18.6% |
| COC(=O)c1cc(OC)c(OC)cc1NCC(=O)Nc1ccc(C)cc1 | 16.3% |

Additional compounds
VDR inhibitor	Structure
-1.7%	CCNC(=O)COc1cc(C)c(Cl)c(C)c1
8.3%	O=C(COC(=O)c1ccco1)NC(c1ccccc1)c1ccccc1
-1.9%	O=C(c1csnn1)N1CCC2(CC1)CCN(c1ccccc1)CC2
-1.2%	O=C(COC(=O)CNC(=O)c1ccccc1)Nc1ccc(Cl)cc1C(F)(F)F
-5.7%	COc1ccccc1N1CCN(C/C(C)=C/c2ccccc2)CC1
-11.5%	COc1cccc(C2NC(C)(C(=O)O)C3C(=O)N(C(C)C)C(=O)C23)c1O (centres undefined)
-6.5%	c1cnc2c(OCc3nc4ccccc4[nH]3)cccc2c1
3.3%	CCc1ccc(-n2c(=O)c3sc4ccccc4c3n(Cc3cccc(F)c3)c2=O)cc1
5.2%	Cc1cccn2c(=O)cc(COc3ccc(NC(=O)C(C)Oc4ccccc4)cc3)nc12 (centres undefined)
0.0%	O=C(COc1ccc(Cl)cc1)N(Cc1ccco1)Cc1ccco1
-19.6%	O=C(COC(=O)c1cc(=O)c2ccccc2o1)NC1CCCC1
1.5%	CC1CN(C(=O)c2cccc(S(=O)(=O)Nc3ccc(Cl)cc3)c2)CC(C)O1 (centres undefined)
-6.6%	CCN(CC)c1ccc(/C=N/NC(=O)c2cccc(S(=O)(=O)Nc3ccccc3OC)c2)cc1
5.7%	Nc1ncc(Br)cc1S(=O)(=O)NCCC(=O)N1CCN(c2ncccn2)CC1
-11.2%	Cc1ccc(NC(=O)CN(C)C(=O)COc2c(Cl)cc(Cl)c3ccc(C)nc23)cc1
1.4%	O=C(CSc1ccc(Cl)cc1)Nc1ccc(N2CCN(c3ccccc3)CC2)c(F)c1
11.8%	Cc1c(Cl)cccc1-n1ncc(C(=O)NC2CCCCC2)c1C1CCN(C(=O)OC(C)(C)C)CC1
3.7%	COc1cccc(C(=O)Nc2cccc(NC(=O)c3cccs3)c2)c1
4.6%	CC1CN(C(=O)c2ccccc2Sc2ccccc2C#N)CC(C)O1 (centres undefined)
10.5%	Cc1ccc(C(C)NC(=O)c2cc3cc(Br)ccc3oc2=N)cc1 (centres undefined)
1.4%	COc1ccc(CCNc2nc3c(c(=O)n(C)c(=O)n3C)n2C)cc1OC
-11.1%	CNC(=O)N(O)C1N(/N=C/c2ccc(N(C)C)cc2)C(=S)SC1(C)C (centres undefined)
1.9%	O=C(CCl)Nc1cccc(S(=O)(=O)NC2=NCCC2)c1
-0.8%	COc1ccc(S(=O)(=O)c2snnc2C)cc1
-1.6%	COc1ccc(CC(=O)N2CCc3ccccc3C2)cc1
-8.9%	COC(=O)C(Cc1ccc(O)cc1)NC(=O)CCc1nc2ccccc2s1 (centres undefined)
-3.3%	CC(=O)N1CCc2cc(S(=O)(=O)NC(Cc3ccccc3)C(=O)NCc3ccc(C)cc3)ccc21 (centres undefined)
-7.5%&6.8%	CCOc1ccc(NC(=O)C(CC)n2nc(C)c3c(C)n(-c4ccccc4)nc3c2=O)cc1 (centres undefined)
-18.9%	O=C(NC(=S)NC1CCSC1=O)c1ccccc1F (centres undefined)
8.1%	O=C(CCNC(=O)c1ccco1)Nc1ccc(Cl)cc1F
18.0%	NNC(=O)CC1=NNC(=O)C1
4.5%	CCc1ccc(NC(=O)CC2C(=O)N(c3cccc(OC)c3)C(=O)N2Cc2ccco2)cc1 (centres undefined)
-9.8%	COc1ccc(S(=O)(=O)N2CCOC2CNC(=O)C(=O)NCCc2ccccc2)cc1OC (centres undefined)
7.4%	COc1ccc(OC)c(NC(=O)CC2C(=O)NCCN2C(=O)Nc2cccc(Cl)c2)c1 (centres undefined)
-16.2%	COc1ccc(CC(=O)Nc2cccc(-c3cn4ccccc4n3)c2)cc1
-10.5%	CN(C)CCn1c(NCc2ccc3c(c2)OCO3)nc2ccccc21
-0.5%	Cn1ncc2c(NNC(=O)c3ccc(Cl)c(Cl)c3)ncnc21
-0.5%&3.3%	C=C1CC[C@H](O)C/C1=C/C=C1\CCC[C@]2(C)[C@@H]([C@H](C)CCCC(C)(C)O)CC[C@@H]12
3.6%	COc1ccc2c(c1)CCC1C2CC[C@@]2(C)C(O)CCC12 (some centres undefined)
-20.6%	Cc1ccc(N(Cc2ccccc2)C(=O)c2cccc(S(=O)(=O)N3CCN(C)CC3)c2)cc1

As a working copy, some entries already given.
VDR inhibitor	Structure
-0.5%&3.3%	C=C1CC[C@H](O)C/C1=C/C=C1\CCC[C@]2(C)[C@@H]([C@H](C)CCCC(C)(C)O)CC[C@@H]12
3.6%	COc1ccc2c(c1)CCC1C2CC[C@@]2(C)C(O)CCC12 (some centres undefined)
-20.6%	Cc1ccc(N(Cc2ccccc2)C(=O)c2cccc(S(=O)(=O)N3CCN(C)CC3)c2)cc1

Additional records:
VDR inhibitor	Structure
-0.9%	C=CCNC(=O)CN1c2cccc3cccc(c23)S1(=O)=O
-10.6%	CN(c1cccc(NC(=O)CN(c2ccc(C34CC5CC(CC(C5)C3)C4)cc2)S(C)(=O)=O)c1)S(C)(=O)=O
11.3%	O=C(NCc1cccnc1)C1CCN(S(=O)(=O)c2cc(Cl)ccc2Cl)CC1
7.3%	O=C(O)/C=C/C(=O)Nc1ccc(-n2nccc2C(F)(F)F)cc1
-1.8%	COc1cccc(C(=O)NC(Cc2ccccc2)c2ccc3c(c2)OCCCO3)c1 (centres undefined)
-2.0%	O=C(COC(=O)C1CC(O)CN1C(=O)Oc1ccccc1)c1ccc(Br)cc1 (centres undefined)
11.8%	COc1ccc(S(=O)(=O)N2CCOC23CCN(S(C)(=O)=O)CC3)cc1
-2.2%	COc1ccc(C2CC(c3ccccc3)=NN2C(=O)COC(=O)/C=C/c2ccc(O)c(OC)c2)cc1 (centres undefined)
7.2%	Cc1ccc(OCC(=O)Nc2ccc3nc(SCC(N)=O)sc3c2)cc1
10.6%	Cc1cc([N+](=O)[O-])nn1CC(=O)Nc1nc2ccccc2s1

Continued (4 carried over from the part before).
VDR inhibitor	Structure
11.8%	COc1ccc(S(=O)(=O)N2CCOC23CCN(S(C)(=O)=O)CC3)cc1
-2.2%	COc1ccc(C2CC(c3ccccc3)=NN2C(=O)COC(=O)/C=C/c2ccc(O)c(OC)c2)cc1 (centres undefined)
7.2%	Cc1ccc(OCC(=O)Nc2ccc3nc(SCC(N)=O)sc3c2)cc1
10.6%	Cc1cc([N+](=O)[O-])nn1CC(=O)Nc1nc2ccccc2s1
8.1%	CCn1ccnc1CN(C)C(=O)C1CCC(=O)N(Cc2cccc(C(F)(F)F)c2)C1 (centres undefined)
-9.9%	CCn1nnc(NC(=O)c2ccco2)n1
-14.3%	COc1cc2c(cc1OC)C(c1ccc([N+](=O)[O-])cc1)N(C(C)=O)CC2 (centres undefined)
-14.9%	COCCCNc1nc2c(c(=O)[nH]c(=O)n2C)n1CC(O)COc1ccccc1C (centres undefined)
-29.1%	CC1CCCCN1c1c(S(=O)(=O)c2ccc(Cl)cc2)cnc2ccccc12 (centres undefined)
3.9%	O=[N+]([O-])c1cccc(S(=O)(=O)N2CCC(c3nc(-c4ccncc4)no3)CC2)c1
20.8%	O=S(=O)(c1ccc2ccccc2c1)n1cccn1
-2.5%	CCOc1cc(-c2cn(S(=O)(=O)c3cccc4nsnc34)nc2N)cc(OCC)c1OCC
1.0%	Cc1occc1C(=O)N/N=C/c1cccnc1
15.7%	CCOC(=O)N1CCN(Cc2nc3cc([N+](=O)[O-])ccc3n2C(C)C)CC1
3.2%	CC(C)(C)OC(=O)C[C@@H]1C/C=C\C[C@@H](CC(=O)N(CCO)Cc2ccccc2)C(=O)N2CCC[C@@H]2COC1=O
